# PK Bst = alters activity of Bacillus stearothermophilus pyruvate kinase; partly purified Bacillus stearothermophilus pyruvate kinase, luminescence ATP production; ribose 5-phosphate activator present at AC10; Potency, µM; 51,000 compounds, 1.2% hits; AID 361; in the data active means potency below about 11 µM; inconclusive means mostly about 12 µM to 25 µM; inactive means weaker than that;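 the screen sought inhibitors and activators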;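 note: potency is the fitted concentration of half-maximal effect; scaled between full activation by ribose 5 phosphate and full inhibition by luteolin; about four in five hits inhibit and the cells do not say which; series up to 57 µM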
# TsaE inh = YjeE (TsaE) inhibition, E. coli; AID 605; 71,000 compounds, 0.05% hits; P0AF67; purified YjeE, fluorescence polarisation of a bound ADP probe; Potency, µM; active = well fitted falling curve; inconclusive = weaker or top-dose-only fall, or a rising curve; inactive = flat or poorly fitted curve;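 note: top concentration of the series not given in the record; excess ADP was the control for the full effect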
#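 Purified YjeE (10 uM) with BODIPY Texas Red-labeled ADP probe (2 uM); compounds pin-transferred, 15 min at room temperature. Binding inhibition read as decreased fluorescence polarization; ADP titration as control.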
# An asterisk follows results filed as active; i = inactive; ? = inconclusive; · = not tested or not shown.
# Each structure is followed by: PK Bst, TsaE inh
1) COc1cc(C(O)c2nc3ccccc3n2C)cc(OC)c1OC (stereo not given)
    ·, i
2) Cc1cccc(OCCOCCN2CCOCC2)c1C
    ·, i
3) O=C1CC(c2ccc(Cl)c(Cl)c2)CC(O)=C1C=NCCN1CCNCC1 (stereo not given)
    ·, i
4) CCOc1cc2[nH]c(=S)n(CCCN3CCOCC3)c(=O)c2cc1OCC
    >57, i
5) CC1(C)Cc2c(c(=S)nc(-c3ccccc3)n2CCO)CO1
    >57, i
6) C[C@H](CCC(=O)O)[C@H]1CC[C@]2(C)[C@@H]3C(=O)C[C@H]4C(C)(C)[C@@H](O)CC[C@]4(C)[C@H]3C(=O)C[C@@]12C
    ·, i
7) CCOc1ccccc1C1CC(=O)NC2=C1C(=O)CCC2 (stereo not given)
    >57, i
8) COC(=O)CSc1nnc(CNC(=O)Cc2ccccc2)n1-c1ccccc1OC
    >57, i
9) CCOc1ccc(Cn2c(=O)oc3ccc(C)cc32)cc1OC
    >57, i
10) CCc1cccc(NC(=O)CCS(=O)(=O)c2cccc3nonc23)c1
    >57, i
11) c1nc(NCCN2CCOCC2)c2sc3nc(N4CCOCC4)c4c(c3c2n1)CCC4
    >57, i
12) O=C(O)CCCCCNC(=O)c1ccncc1
    >57, i
13) O=C(C1CCCN(Cc2ccncc2)C1)N1CCc2ccccc2C1 (stereo not given)
    >57, i
14) c1ccc(Cn2ncc3c(NCc4ccco4)ncnc32)cc1
    >57, i
15) O=C(CN(Cc1ccccc1F)S(=O)(=O)c1ccc(Cl)cc1)NCCCO
    ·, i
16) COc1cc(/C=C/c2ccccc2)oc(=O)c1
    ·, i
17) Cc1ccc2c(c1)cc(CN(Cc1ccccc1)C(=O)N(C)C)c1nnnn12
    >11, i
18) Cc1cc(NC(=O)CCC(=O)N(c2ccccc2)C(C(=O)NCC2CCCO2)c2cccnc2)no1 (stereo not given)
    >57, i
19) NC(CC(=O)O)c1cccc(OCc2ccccc2)c1 (stereo not given)
    >57, i
20) CC[C@@]12CCCN3CCc4c(n(c5ccccc45)C(=O)C1)[C@H]32
    ·, i
21) COc1ccc(N)c(OC)c1
    ·, i
22) CC(CC(=O)O)NCC1COc2ccccc2O1 (stereo not given)
    >57, i
23) CCCCN(C(=O)CNC(=O)c1ccco1)C(C(=O)NC1CCCCC1)c1ccc(OC)cc1OC (stereo not given)
    >57, i
24) CN(C1CCCCC1)S(=O)(=O)c1ccc(-n2cnnn2)cc1
    >57, i
25) C=CCOc1nc(N(C)C)nc(N(C)C)n1
    >57, i
26) CCOC(=O)N1CCN(Cc2nc3c(c(=O)n(C)c(=O)n3C)n2Cc2cccc(C)c2)CC1
    >57, i
27) CCOc1ccc(-n2nc(C(=O)NCCOC)c3ccccc3c2=O)cc1
    >57, i
28) CCN(CC)CCNC(=O)c1c(O)c2cc(OC)c(OC)cc2[nH]c1=O
    >57, i
29) COc1ccc(-c2cc3n(n2)CCc2nc4ccccc4n2-3)cc1
    1.7*, i
30) O=C(CN1CCCC1)Nc1ccc(Oc2ccc(NC(=O)CN3CCCC3)cc2)cc1
    >57, i
31) O=C1CC[C@H](N2C(=O)c3ccccc3C2=O)C(=O)N1
    ·, i
32) Cc1cc(Cl)ccc1N=Cc1c(O)n(C)c(=O)n(C)c1=O
    ·, i
33) COc1cc(CO)cc(Br)c1OCc1cccnc1
    >57, i
34) CCC(C)N(CCNC(=O)CC1Oc2ccccc2NC1=O)C1CCCCC1 (stereo not given)
    ·, i
35) Cc1ccc(F)cc1NC(=O)c1cccc2nccnc12
    >57, i
36) CCOC(=O)CSc1ccc2nnc(-c3ccncc3)n2n1
    ·, i
37) CC(=O)N1CCN(c2nc3cc4c(cc3nc2NS(=O)(=O)c2ccccc2)OCCO4)CC1
    >57, i
38) COc1cccc(C(=O)Cn2c(Br)nc3c2c(=O)n(C)c(=O)n3C)c1
    >57, i
39) Cc1cc(C)nc(NC(=O)c2cnc3sccn3c2=O)n1
    ·, i
40) O=c1[nH]c(CN2CCN(Cc3ccc4c(c3)OCO4)CC2)nc2ccccc12
    >57, i
41) Cc1ccc(-c2cc(C(=O)Nc3cc(C)ccc3C)[nH]n2)c(O)c1
    >57, i
42) CCc1cccc(C)c1NC(=O)c1cc(C)oc1C
    >57, i
43) CCCCNC(=O)c1sc(=S)n2c1[nH]c(=O)c1ccccc12
    i, i
44) Cc1cc(NC(=O)c2cc3ccccc3o2)cc(C)c1OCC(=O)N1CCOCC1
    ·, i
45) COc1cccc(C(=O)NC2=NCCS2)c1OC
    >11, i
46) COC(=O)C1CC1C(NC(=O)[C@@H]1CCCN1)c1ccccc1 (stereo not given in full)
    ·, i
47) O=S(=O)(NCCCCCNS(=O)(=O)c1ccccc1)c1ccccc1
    >57, i
48) O=C(NCC(F)(F)F)Nc1nnc(C(F)(F)F)s1
    >26, ·
49) O=C(c1ccc(Cl)cc1Cl)C1(n2cncn2)Oc2ccccc2C1O (stereo not given)
    ?, i
50) COC(=O)c1ccc(CSc2nc(-c3ccccc3)cs2)o1
    ·, i
51) O=c1c2ccccc2nnn1CSc1nnc2sc3ccccc3n12
    ·, i
52) COc1ccc(OC)c(S(=O)(=O)N(C)CC(=O)N2CCN(c3ccc(F)cc3)CC2)c1
    >57, i
53) CCC(c1ccccc1)c1nc(-c2ccccn2)no1 (stereo not given)
    ·, i
54) CCn1c(=O)c(C(=O)NCc2ccc(OC)c(OC)c2)c(O)c2ccccc21
    >57, i
55) Cc1nnc(SCc2ccc(F)cc2)s1
    >57, i
56) NC(=O)N/N=C/c1ccc([N+](=O)[O-])o1
    ·, i
57) CCN(C(=O)CSc1nc2nc(C)cc(C)n2n1)c1cccc(C)c1
    >57, i
58) CCn1c(SCC(=O)N2CCCc3ccccc32)nnc1-c1ccco1
    >57, i
59) Cc1ccccc1CS(=O)(=O)Cc1ccc(C(=O)NCc2ccccn2)o1
    >57, i
60) Cc1ccc(S(=O)(=O)C2(C(=O)N3CCCCCC3)CC2)cc1
    >57, i

# Later entries:
# Each structure is followed by: PK Bst, TsaE inh
61) NS(=O)(=O)c1ccc(CCNC(=O)c2cccnc2)cc1
    >57, i
62) COC(=O)c1ccc(Cl)c(NC(=O)CSc2ncn[nH]2)c1
    >57, i
63) CC(C)C[C@@H](CC(=O)N[C@H](CC(=O)N[C@@H]1CCCC[C@H]1C(=O)N[C@H](CC(=O)N[C@@H](CCC(=O)O)CC(=O)O)CC(C)C)C(C)C)NC(=O)[C@@H]1CNCC[C@H]1N
    ·, i
64) O=S(=O)(Cc1ccccc1)NCc1ccccn1
    >57, i
65) NC(N)=N[C@H](CCC(=O)O)C(=O)O
    ·, i
66) COC(=O)C1=C(C(=O)c2ccccc2)C(c2ccc(O)c(OC)c2)n2nnnc2N1 (stereo not given)
    >57, i
67) COC(=O)[C@@]1(Cc2ccc(OC)cc2)[C@H]2c3cc(C(=O)N4CCCC4)n(CCc4ccc(OC)c(Br)c4)c3C[C@H]2CN1C(=O)c1ccccc1
    ·, i
68) CCNc1ncc2ncc(=O)n(C3CC3)c2n1
    ·, i
69) O=C(CN1CC(c2ccccc2)CC1=O)Nc1ccc2c(c1)OCO2 (stereo not given)
    ·, i
70) CN(c1ccccc1)S(=O)(=O)c1ccc(C(=O)Nc2nnc(-c3ccc(F)cc3)o2)cc1
    >57, i
71) O=C(Cc1c(O)c2ccccc2[nH]c1=O)NC1CCCCCC1
    >57, i
72) CC1CCCCN1C(=O)c1cc(-c2ccc(Cl)c(Cl)c2)on1 (stereo not given)
    i, i
73) CCOc1nonc1C(=N)/C(C(C)=O)=C(\C)O
    ·, i
74) COc1ccc(NC(C)=O)cc1NC(=O)CCn1c(=O)sc2ccccc21
    >57, i
75) Cn1c(=O)c2c(nc(N3CCOCC3)n2CCCNC2=NCCC2)n(C)c1=O
    >57, i
76) CN1CCN(C(=O)CSc2nc(-c3ccncc3)ccc2C#N)CC1
    >26, ·
77) N#Cc1nc(Cc2ccccc2)oc1NCCc1ccccc1
    >57, i
78) COCCn1c(C(C)C)nc2oc3ccccc3c(=O)c2c1=O
    >57, i
79) Cc1ccc2nc(NC(=O)C3CCN(S(=O)(=O)c4cccc5nsnc45)CC3)sc2c1
    >57, i
80) O=C(Nc1ccc2c(c1)OCCO2)C1CCN(c2nnnn2-c2ccccc2)CC1
    >57, i
81) COc1ccc(Oc2ncc3nc(CCc4ccccc4)c(=O)n(CCC#N)c3n2)cc1
    ·, i
82) O=C(Cn1cc(C(=S)N2CCOCC2)c2ccccc21)N1CCOCC1
    >57, i
83) COc1cccc(Cn2c(=O)c(-c3ccccc3)nc3cnc(OC)nc32)c1
    ·, i
84) O=c1[nH]c2cc3c(cc2cc1CN(Cc1ccccc1)Cc1nnnn1Cc1ccco1)OCCO3
    >57, i
85) CCC(C(=O)Nc1ncccn1)(C(F)(F)F)C(F)(F)F
    >57, i
86) CC(=O)N(C)C1(c2nnnn2CCOC(=O)Nc2ccc(Cl)cc2)CCCCC1
    >57, i
87) COc1ccccc1CN1C(=S)SC(C)(C)C1NO (stereo not given)
    >57, i
88) C/C(=N\O)C(=O)NCc1ccncc1
    >57, i
89) N#Cc1nc(COc2ccc(Cl)cc2)oc1N1CCCC1
    >57, i
90) CCCn1c(SCC(=O)N2CCCCC2)nnc1-c1ccco1
    >57, i
91) O=c1c2cnn(-c3ccccc3)c2nc(-c2ccco2)n1-c1ccccc1
    ·, i
92) C=COCCn1c(-c2nonc2N)nc2ccccc21
    ·, i
93) Cc1ccc(N2CCN(C(=O)CNS(=O)(=O)c3ccc(Br)s3)CC2C)cc1 (stereo not given)
    >57, i
94) CCCCc1ccc(C2C(C#N)=C(N)SC(N)=C2C#N)s1
    ·, i
95) CCSc1nnc(NC(=O)CSc2nc3c(c(=O)n2-c2ccccc2)SCC3)s1
    >57, i
96) O=C(Oc1ccccc1C(=O)N1CCOCC1)c1ccc(Br)cc1
    ·, i
97) COc1ccc(OC)c2[nH]c(=O)c(CCNC(=O)c3ccc(S(=O)(=O)N(C)C)cc3)cc12
    >57, i
98) c1ccc(-n2c(Cc3cn4ccsc4n3)nnc2N2CCOCC2)cc1
    >57, i
99) c1ccc2[nH]c(NC3=NCCC3)nc2c1
    >57, i
100) CCOc1ccccc1NC(=O)NC1CCN(CC(=O)Nc2ccc3c(c2)OCCO3)CC1
    >57, i
101) CN(CCC(=O)Nc1ccc2c(c1)OCO2)Cc1ccccc1
    >57, i
102) NC(=S)NNC(N)=S
    ·, i
103) Cc1ccc(N=Cc2ccc(O)cc2O)cc1F
    ·, i
104) COCCCNC(=O)CSC1=Nc2ccccc2C2=NC(Cc3c[nH]c4ccccc34)C(=O)N12 (stereo not given)
    >57, i
105) Cc1ccc(N(CC(O)COCc2ccco2)S(=O)(=O)c2ccc(C)cc2)cc1 (stereo not given)
    i, i
106) O=C(COC(=O)Cn1cnc2ccccc21)NCCC1=CCCCC1
    >57, i
107) CC(C)CNC(=O)COc1ccc2c3c(c(=O)oc2c1)CCC3
    ·, i
108) CCN1CCCC1CNc1ncnc2c1[nH]c1ccc(F)cc12 (stereo not given)
    ·, i
109) COc1ccc(Oc2ncc3ncc(=O)n(Cc4ccc(F)cc4)c3n2)cc1
    ·, i
110) COC(=O)C1(C)Nc2ccccc2C(=O)N1c1ccccc1C (stereo not given)
    ·, i
111) CCOC(=O)N1CCN(C(=O)c2ccccc2N(C)S(C)(=O)=O)CC1
    >57, i
112) CCSCc1nnc(SCC(=O)Nc2nc3ccccc3s2)n1C
    >57, i
113) CCN(CC)CCCN1C(=O)C(O)=C(C(=O)c2sc(C)nc2C)C1c1ccco1 (stereo not given)
    >57, i
114) CC(=O)c1c(C)n([O-])c2ccccc2[n+]1=O
    ·, i
115) CC1CCCCN1S(=O)(=O)c1ccc(NC(=O)c2cccc(-n3cnnn3)c2)cc1 (stereo not given)
    >57, i
116) Cc1cc2c(N3CCCCC3C)ncnc2s1 (stereo not given)
    >57, i
117) CCNC(=O)c1cc2c(=O)n3cccc(C)c3nc2n(Cc2ccc(C)cc2)c1=N
    >57, i
118) COc1ccc(NC(=O)C2CCCN(c3c4c(nc5ncnn35)CCC4)C2)cc1 (stereo not given)
    >57, i
119) COc1cccc(-c2nn(-c3ccccc3)cc2CO)c1
    ·, i
120) CSc1nnc2c(n1)OC(C)N(C(=O)c1ccccc1)c1ccccc1-2 (stereo not given)
    >57, i

# (continued)
# Each structure is followed by: PK Bst, TsaE inh
121) CC1(C)CC(=O)C=C(Nc2ccc(C(=O)O)cc2)C1
    >57, i
122) c1ccc(CCc2cccnc2)nc1
    ·, i
123) Cc1nonc1NC(=O)CSc1nc(C2CCCCC2)nc2ccccc12
    >57, i
124) COc1ccc(-c2nnc(SCC(=O)Nc3ccc(C)cc3)n2C)cc1
    >57, i
125) CC(=O)N1CCN2C(=O)C1CCCC(=O)c1cc(C3CCCCC3)ccc12 (stereo not given)
    >57, i
126) CN1CCN(CCc2nc3cc(NC(=O)COc4ccccc4)ccc3n2C)CC1
    >57, i
127) Cc1cccc(CNc2ccnc(-c3ccc(C(=O)N(C)C)cc3)n2)c1
    ·, i
128) COC(=O)c1oc2ccccc2c1NC(=O)CN1CCCC1
    >57, i
129) COc1ccc(Nc2cc(C(=O)NCCCN3CCN(C)CC3)c3ccccc3n2)cc1
    ·, i

# Bioassay records deposited in PubChem by National Center for Advancing Translational Sciences (NCATS).

# Some of the compounds tested; the hit share may differ from the screen's.
